Rango dissoc inh: prevents RanGTP from dissociating the Rango-importin beta complex; O95149+P62826; Biochemical FRET Rango-importin beta, RanGTP-induced dissociation; Potency, µM (highest dose often 46.1 µM), inactives show at the top dose activity change, negative = inhibition; hit rate 0.071% among 340,000; AID 540253; active means falling FRET ratio curve, often poorly fitted, with flat reads before Ran was added; inconclusive means other falling curves, or compound fluorescence or quenching; inactive means flat or rising ratio curve;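 further: potency means the concentration at half of the fitted maximal effect; % of control where 0% means no effect; nearly all actives have a fitted effect of over 45% in size; -100% = wells without RanGTP and RCC1; the record marks most hits as doubtful in a second field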
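Recombinant Rango FRET biosensor (EYFP–snurportin 1 IBB–cerulean CFP10) at 0.1 uM premixed with 0.25 uM importin beta in PBS, 1 mM DTT, 0.02% Tween-20, 0.1% BSA. Compound added 5 min; RanGTP-RCC1 (0.6 uM Ran, 2 mM GTP, 0.2 uM RCC1) then triggers release, read at 45 min.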
GLA inh pH 4.5: inhibitors of human alpha-galactosidase A at pH 4.5 | P06280 | activity change, negative = inhibition, % at 105 µM | 230,000 tested, under 10 active | purified enzyme, 4-MU-alpha-Gal fluorescence, pH 4.5; inconclusive = small, poorly fitted or top-dose-only inhibition, or a rising curve; inactive = flat fitted curve, though single readings scatter; no compound was filed as active;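 further: 0% = full activity with enzyme and -100% = basal without enzyme; dose as in the result columns while the protocol names 77 µM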
Target sequence (P06280 whole entry, looked up): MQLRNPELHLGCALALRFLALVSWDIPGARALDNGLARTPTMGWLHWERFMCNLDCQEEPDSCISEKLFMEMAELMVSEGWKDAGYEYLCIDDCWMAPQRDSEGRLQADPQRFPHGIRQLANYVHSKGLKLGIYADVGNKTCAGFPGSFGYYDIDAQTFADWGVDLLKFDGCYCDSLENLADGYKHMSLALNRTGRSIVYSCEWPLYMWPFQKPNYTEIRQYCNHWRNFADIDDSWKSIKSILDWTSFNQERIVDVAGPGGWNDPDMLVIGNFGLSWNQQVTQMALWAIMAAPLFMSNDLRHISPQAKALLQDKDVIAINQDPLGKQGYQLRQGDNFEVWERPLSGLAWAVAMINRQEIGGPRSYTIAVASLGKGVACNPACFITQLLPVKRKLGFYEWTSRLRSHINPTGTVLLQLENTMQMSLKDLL
Rango-impB inh: Rango-importin beta binding inhibition; AID 540263; hit rate 0.031% among 340,000; Potency, µM (top dose mostly 92.2 µM), without a hit: top-dose inhibition of complex formation; Rango CFP/YFP FRET sensor + importin beta, 45 min; Q14974; active = rising FRET ratio curve, often small or poorly fitted; inconclusive = mostly compound fluorescence or quenching in the first reads; inactive = flat curves in all reads;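 further: potency means the concentration at half of the fitted maximal effect; 0% = DMSO wells and 100% = buffer wells lacking importin beta; nearly all actives have a fitted effect of over 15% in size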
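FRET biosensor Rango (snurportin 1 IBB between N-terminal EYFP and C-terminal Cerulean), 50 nM in PBS/1 mM DTT/0.02% Tween-20/0.1% BSA, preincubated 5 min RT with compound; 0.125 microM importin beta added, 45 min RT, CFP/YFP FRET ratio read.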
miR-21 FLuc: raises the signal of a miR-21 reporter. HeLa miR-21 FLuc reporter, luciferase, 48 h. Potency, µM (doses to about 38.3 µM), for inactives: at the top dose reporter change, positive = more light. 340,000 tested, under 10 active. AID 2288; active = well fitted rising curve with a large enough effect; inconclusive = small, poorly fitted or top-dose-only effect; inactive = no such curve, though single readings can be large or run the other way;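 further: % of control where 0% means no effect; miR-21 action dims this reporter so a rising signal means less miR-21 action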
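HeLa cells endogenously expressing miR-21, stably carrying CMV-driven firefly luciferase with a downstream miR-21 binding site, 2000 cells/well. Titrations up to approximately 40 uM, 48 hours; luciferase luminescence read.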
An asterisk follows results filed as active; ? = inconclusive; . = not tested or not shown; & = joins results of further samples; [ ] = another dose, or the depositor's remark. Only part of the results is shown, so the mix of outcomes need not match the whole.

Values in the order: GLA inh pH 4.5	Rango-impB inh	Rango dissoc inh	miR-21 FLuc
1: Cc1ccc(S(=O)(=O)N2[C@@H](c3ccccc3F)C(C(=O)O)=CC[C@H]2c2ccc(Cl)c(Cl)c2)cc1
    .	-1.6%	-13%	.
2: COCCn1cnnc1SCC(=O)Nc1cccc(S(=O)(=O)N2CCCCC2)c1
    .	-2.1%	1%	.
3: COC(=O)c1cc2c(=O)n3cccc(C)c3nc2n(Cc2cccnc2)c1=N
    1	.	.	-1%
4: CCOc1ccc(N(CC(=O)NC2CCCC2)C(=O)Cn2nnc(-c3ccc(C)o3)n2)cc1
    .	0.3%	6%	-3%
5: Cc1cc(C)n(-c2nc(-c3cccc(Cl)c3)cs2)n1
    2	1.6%	-13%	-30%
6: c1ccc2c(NCCCN3CCOCC3)c3ccccc3nc2c1
    13	.	.	?
7: Cc1ccc(S(=O)(=O)ON2C(=O)c3ccccc3C2=O)c(C)c1
    -17	?	-2%	-6%
8: CC(C)(C)/C=N/NC(=O)C1CC1
    0	-1.6%	-14%	-15%
9: O=C(c1ccc(NC2=NC3CS(=O)(=O)CC3S2)cc1)N1CCN(c2ccccc2)CC1 (stereo unspecified)
    .	1.1%	-5%	1%
10: Cc1ccc(OCCNC(=O)C2CC(=O)N(Cc3ccccc3)C2)cc1 (stereo unspecified)
    .	1.4%	-1%	.
11: CCCc1ccc2oc(C(=O)N3CCN(CCC(N)=O)CC3)c(C)c2c1
    .	2.4%	6%	0%
12: CN(C(=O)c1ccc(NC(=O)Cc2ccc([N+](=O)[O-])cc2)cc1)C1CCCC1
    .	?	?	.
13: CCCCCCCCNC(=O)/C(C#N)=C/c1ccc(SC)cc1
    6	-2.8%	-2%	-6%
14: COc1ccc(-c2nc(=S)c3ccc4ccccc4c3[nH]2)cc1
    -1	-2.3%	4%	1%
15: O=C1CN(C(=O)CC2c3ccccc3-c3ccccc32)CC(=O)N1
    -11	1.7%	6%	-6%
16: COc1cc([C@H]2OC[C@H]3[C@@H]2CO[C@H]3c2ccc(O)c(OC)c2)ccc1O
    .	-0.4%	11%	.
17: CCC(C)N(C(=O)COC(=O)c1ccc(=O)n(Cc2ccccc2)n1)C1CCS(=O)(=O)C1 (stereo unspecified)
    .	1.0%	16%	.
18: CC(NC(=O)c1ccccc1F)C12CC3CC(CC(C3)C1)C2 (stereo unspecified)
    .	-0.1%	10%	.
19: O=C(CSc1nc2scc(-c3ccccc3)c2c(=O)[nH]1)NC1CCCCC1
    1	.	.	2%
20: CCOc1ccc(S(=O)(=O)NCC2CCCO2)cc1NC(=O)c1ccccc1F (stereo unspecified)
    .	-1.8%	18%	5%
21: O=C(N/N=C/c1ccc(O)cc1O)C(=O)N/N=C/c1ccc(O)cc1O
    .	?	?	0%
22: CC(C)OC(=O)c1ccc(N2CCN(c3ccccc3F)CC2)nc1
    .	1.2%	-13%	-8%
23: O=C(c1cccc(Cl)c1)C1CCCN(C(=O)c2ccc3c(c2)OCO3)C1 (stereo unspecified)
    .	-1.5%	-19%	6%
24: CC(C)Oc1cccc(C(=O)N/N=C/c2coc3ccccc3c2=O)c1
    .	-0.9%	-5%	-1%
25: Nc1nonc1C(=O)NCCNCc1ccccc1
    8	1.1%	13%	0%
26: O=C(/C=C/c1cccc([N+](=O)[O-])c1)N1CCOCC1
    8	-5.1%	1%	-8%
27: O=c1[nH]c2cc(Br)cnc2nc1/C=C(\O)c1ccc(F)cc1
    -17	?	?	-20%
28: COc1ccccc1C(=O)Oc1ccccc1C(=O)Nc1ccccc1
    7	-3.6%	-5%	-33%
29: CCNCC(O)COCC(O)CNCC (stereo unspecified)
    2	0.2%	-1%	-2%
30: O=C(CC1C(=O)NCCN1Cc1cccc(C(F)(F)F)c1)NCCCOc1cccnc1 (stereo unspecified)
    .	7.3%	11%	0%
31: COc1ccc(NC(=O)N(CCN2CCCC2)Cc2cc3cc(OC)c(OC)cc3[nH]c2=O)cc1
    -2	4.3%	-8%	-9%
32: COc1ccc(/C(C)=N/NC(=O)Cn2nc([N+](=O)[O-])cc2C)cc1
    2	-2.3%	5%	-5%
33: Cc1ccc(N2C(=O)c3n[nH]c(C)c3C2c2ccco2)cc1 (stereo unspecified)
    2	-1.9%	-1%	-39%
34: Cc1c(CCO)c(=O)n(C)n1C(=O)c1ccc(Cl)cc1
    -30	-1.9%	11%	-13%
35: O=S(=O)(CCN1CCN(C(c2ccccc2)c2ccccc2)CC1)C(F)(F)F
    3	-2.2%	-6%	-9%
36: Cc1ccc(S(=O)(=O)N2CCN(C)CC2)c2nsnc12
    .	-1.3%	-12%	1%
37: CSc1nc(-c2ccccc2F)c(C#N)c(=O)n1C
    1	0.4%	23%	-8%
38: c1cc(-n2cnnn2)ccc1NC1=NCCC1
    6	-1.4%	14%	0%
39: NC(=O)CC(NC(=O)Cc1cccc2ccccc12)c1ccc(N2CCC(Cc3ccccc3)CC2)c([N+](=O)[O-])c1 (stereo unspecified)
    .	?	3%	0%
40: O=C(Cn1c2ccc(F)cc2c2nc3n(c(=O)c21)CCS3)NC1CCCC1
    .	2.1%	-3%	-1%
41: COc1ccc(CNC(=O)/C=C/c2ccc(OCCCF)cc2)cc1OC
    -1	0.0%	0%	3%
42: CC(C)=CCC[C@](C)(OC1OC(COC2OCC(O)C(O)C2O)C(O)C(O)C1O)C1CC[C@]2(C)C1C(O)CC1[C@@]3(C)CCC(O[C@@H]4O[C@H](CO)C(O)C(O)C4O[C@@H]4OC(CO)C(O)C(O)C4O)C(C)(C)C3CC[C@]12C (stereo partly specified)
    .	-0.1%	2%	.
43: CC(=O)Nc1ccc(S(=O)(=O)N2CCC(C(=O)O)CC2)cc1
    -2	7.8%	-8%	-1%
44: Cc1cc(C)nc(N(C#N)Cc2ccccc2Cl)n1
    7	-1.3%	7%	-16%
45: CCOC(=O)c1sc(=S)n(-c2ccccc2)c1SC
    -5	0.0%	-10%	-2%
46: COc1ccc(C=NNC(=O)NN=Cc2ccc(OC)c(OC)c2)cc1OC
    .	3.3%	0%	.
47: COc1cc(C(=O)N(Cc2ccc(C)o2)C2CCS(=O)(=O)C2)cc(OC)c1OC (stereo unspecified)
    .	-1.9%	-11%	-2%
48: Cc1cc(C)nc(SCCc2ccncc2)n1
    -2	-0.5%	-1%	-11%
49: Cc1noc(C)c1C(=O)N(CC(=O)Nc1ccccc1Br)Cc1ccco1
    .	2.5%	29%	.
50: CCCN(CC1CC1)C(=S)Nc1ccc(Oc2ccccc2)cc1
    3	0.1%	-5%	-2%
51: O=C(NCC(=O)N(Cc1ccco1)C(C(=O)NC1CCCC1)c1cccnc1)c1ccco1 (stereo unspecified)
    .	3.4%	3%	.
52: CCCCCCn1c(NCC)nc2c1c(=O)n(C)c(=O)n2C
    -11	4.1%	-4%	27%
53: CC(=NNC(=S)SCc1ccccc1)c1ccccn1
    .	?	-22%	.
54: Cc1cc2nnc(SCC(=O)NCC(c3ccccc3)N(C)C)n2c2ccccc12 (stereo unspecified)
    .	-1.0%	14%	-1%
55: COc1cc(OC)c(NC(=O)C2CCN(S(=O)(=O)c3ccc4c(c3)CC(C)N4C(C)=O)CC2)cc1Cl (stereo unspecified)
    .	2.2%	-17%	1%
56: Cc1cnc(NC(=O)Cc2ccccc2F)s1
    .	-3.1%	17%	-16%
57: COc1cccc(OC)c1C1=NC(C)(C)CO1
    -14	4.9%	-14%	-7%
58: Cc1csc2ncnc(NC3CCN(Cc4ccccc4)CC3)c12
    -1	1.9%	0%	23%
59: O=C(Nc1cccnc1)c1cc([N+](=O)[O-])ccc1Cl
    -3	0.9%	3%	8%
60: COc1ccccc1-c1cc(C(=O)N/N=C/c2sccc2C)c2ccccc2n1
    0	-3.5%	-7%	12%

(next part)
Values in the order: GLA inh pH 4.5	Rango-impB inh	Rango dissoc inh	miR-21 FLuc
61: CCOC(=O)C1=C(CSc2nccn2C)NC(=O)NC1c1ccc(OC)cc1 (stereo unspecified)
    3	3.4%	?	-5%
62: O=C(COc1ccccc1)OCC(=O)c1c[nH]c2ccccc12
    .	1.4%	-14%	.
63: CCCc1c(C(=O)N/N=C(\C)c2ccc(O)cc2)nnn1-c1nonc1N
    .	-1.2%	-2%	-5%
64: COc1ccc2nc(NC(=O)CSc3nnc4n3C(C)(C)Cc3ccccc3-4)sc2c1
    -2	-1.1%	-7%	-3%
65: Cc1sc2nc(-c3cccnc3)nc(Cl)c2c1-c1ccccc1
    1	-3.1%	-11%	-33%
66: CCC1(C)Cc2ccccc2-c2nc(NCCO)n(-c3ccccc3)c(=O)c21 (stereo unspecified)
    23	-1.2%	19%	7%
67: CC(Oc1ccc2c(c1)oc(=O)c1ccccc12)C(=O)NCCN1CCOCC1 (stereo unspecified)
    .	-1.4%	-16%	-10%
68: CCCN(CCC)C(=O)c1cc2c(=O)[nH]c3ccc(C)cc3c2s1
    3[21.1 µM]	3.4%	5%	-6%
69: O=C(CN1CCN(C(c2ccccc2)c2ccccc2)CC1)Nc1ccc(N2CCOCC2)cc1
    -7	-0.2%	6%	1%
70: O=C(CCc1nnc(-c2ccc3c(c2)OCO3)o1)NC(c1cccnc1)C(F)(F)F (stereo unspecified)
    1	1.1%	4%	-2%
71: Nc1nc(SCC(=O)Nc2cccc([N+](=O)[O-])c2)n[nH]1
    .	1.3%	-4%	.
72: Cc1cc(C)c(NC(=O)C(=O)NCc2ccco2)c(C)c1
    4	-0.3%	?	1%
73: CCCn1nnc(NC(=O)/C=C/c2ccccc2)n1
    12	-1.2%	4%	-27%
74: COc1ccccc1NC(=O)CCCC(=O)OCC(=O)c1ccc(F)cc1
    .	-0.5%	-11%	0%
75: O=[N+]([O-])c1ccc(CNc2ccc(Cl)cc2)s1
    .	3.5%	8%	8%
76: COC(=O)COc1ccc2cccc(-n3cnnn3)c2c1
    1	-1.0%	4%	3%
77: CCc1ccccc1NS(=O)(=O)c1ccc(OC)c2ncccc12
    .	-1.7%	-29%	22%&18%
78: O=C(Cc1ccc(Cl)cc1)Nc1ccc(S(=O)(=O)N2CCOCC2)cc1
    .	0.0%	-9%	3%
79: COC(=O)[C@]1(C)CCC[C@@]2(C)C3CC[C@@]4(C)C[C@]3(CCC21)CC4=NO (stereo partly specified)
    .	-2.9%	-13%	.
80: Brc1ccc2[nH]c3c(N4CCc5ccccc5C4)ncnc3c2c1
    2	-0.3%	-5%	27%
81: O=C(Nc1ccc2ncccc2c1)c1ccccc1Cl
    0	-0.2%	-5%	1%
82: COC(=O)c1ccc(NC(=O)Nc2ccc(OC)cc2)cc1
    7	2.2%	-3%	-26%
83: COc1ccc(CN2CCc3c([nH]c4ccccc34)C2)cc1Br
    .	2.7%	1%	21%
84: N[C@@H](Cc1ccc(O)cc1)c1nnc([C@H](CO)NC(=O)C2CCNCC2)o1
    -9	-0.9%	13%	3%
85: CCN1C(=O)CC(Sc2ccccc2C(=O)O)C1=O (stereo unspecified)
    4	-1.8%	0%	-3%
86: Cc1ccc(S(=O)(=O)N2CCN(C(=O)COC(=O)COc3ccccc3C(C)C)CC2)c(C)c1
    .	5.7%	17%	.
87: Cc1cc(C(=O)N/N=C/c2ccc[nH]2)no1
    7	0.6%	-10%	-5%
88: O=C(NCCOc1ccccc1F)C1CCC(=O)N(CC2CCCCC2)C1 (stereo unspecified)
    .	0.8%	-11%	-4%
89: Cc1nc(C#N)c(NCc2ccc3c(c2)OCO3)o1
    3	0.7%	11%	-10%
90: O=C(NC(=S)NCc1ccccc1)c1cccc(Cl)c1
    .	1.3%	-20%	1%
91: O=c1[nH]c2ccccc2n2c(-c3ccncc3)nnc12
    1	6.9%	-4%	-6%
92: O=C(COc1ccc(F)cc1)N1CCCc2ccccc21
    .	7.1%	22%	-21%
93: O=C(Nc1ccc(Cl)cc1)c1nc[nH]c1C(=O)N1CCN(c2ccccc2)CC1
    .	2.5%	1%	.
94: O=S(=O)(/N=C(/Nc1nc2ccccc2s1)c1ccccc1)c1ccccc1
    .	2.1%	8%	.
